gsp agonist: activates gsp, the McCune-Albright syndrome mutation; 0.13% of 340,000 active; AID 624287; Potency, µM (titrated, usually from 76.9 µM), without a hit: top-dose activation (cAMP increase), most hits filed as activators; gsp mutant cells, cAMP HTRF, 30 min; control for the full effect not named in the record; active = well fitted activation curve with a large enough effect; inconclusive = small, poorly fitted or top-dose-only effect, or another doubt; inactive = no such curve, though single readings can be large or run the other way; cell line not stated here;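 also: phosphodiesterase inhibitor Ro 20-1724 added with compounds to block cAMP breakdown; potency is read from the fitted curve at half-maximal effect; nearly all actives have a fitted effect of over 60% in size; about a fifth of the inactives were tested at one dose only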
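Cells in DMEM/10% FBS with G418 were pretreated with compounds in DMSO plus […] (300 uM stock) for 30 min at 37C. cAMP was measured by HTRF (cAMP-d2 plus anti-cAMP antibody-K) after 30 min at room temperature.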
TRPV1 PAM: human TRPV1 potentiation; Q8NER1; TRPV1-expressing cells, Fluo-8 calcium influx, capsaicin EC20 potentiation; host cell line not named in the record; control for the full effect not named in the record; potentiation, % at 8.33 µM; 0.02% of 320,000 active; AID 540277; active means potentiation above 80%; inconclusive means 30% to 80%; inactive means below 30%; also: 0% is about no effect
Target sequence (Q8NER1 whole entry, looked up): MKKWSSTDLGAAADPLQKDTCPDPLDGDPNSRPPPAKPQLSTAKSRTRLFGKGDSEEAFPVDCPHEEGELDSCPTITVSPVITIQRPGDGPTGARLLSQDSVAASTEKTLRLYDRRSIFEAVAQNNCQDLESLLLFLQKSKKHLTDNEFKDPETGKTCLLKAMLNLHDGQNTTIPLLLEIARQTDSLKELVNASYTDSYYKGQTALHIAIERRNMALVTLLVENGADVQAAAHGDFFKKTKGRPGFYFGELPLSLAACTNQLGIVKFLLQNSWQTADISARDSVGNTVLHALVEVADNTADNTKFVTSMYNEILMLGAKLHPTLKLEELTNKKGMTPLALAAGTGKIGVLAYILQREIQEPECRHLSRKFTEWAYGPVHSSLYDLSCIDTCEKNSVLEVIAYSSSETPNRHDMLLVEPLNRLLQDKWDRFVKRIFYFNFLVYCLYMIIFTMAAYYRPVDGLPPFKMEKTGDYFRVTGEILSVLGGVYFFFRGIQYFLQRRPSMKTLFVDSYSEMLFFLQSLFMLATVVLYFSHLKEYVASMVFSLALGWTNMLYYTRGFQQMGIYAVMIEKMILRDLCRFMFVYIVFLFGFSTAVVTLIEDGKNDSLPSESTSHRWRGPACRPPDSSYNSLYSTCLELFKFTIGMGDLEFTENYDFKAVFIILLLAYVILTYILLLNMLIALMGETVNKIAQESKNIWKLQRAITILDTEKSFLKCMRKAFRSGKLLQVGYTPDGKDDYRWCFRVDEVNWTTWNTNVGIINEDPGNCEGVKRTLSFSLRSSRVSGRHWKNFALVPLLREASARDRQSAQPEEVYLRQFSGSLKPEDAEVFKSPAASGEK
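TRPV1-expressing cells were cultured overnight at 35.5C and loaded with Fluo-8 calcium dye for 40 to 90 min at room temperature. After a 10 s baseline, compound was added and calcium influx was read kinetically for 3 min (ex 480/em 520 nm).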
gsp antag: gsp mutant antagonism. Potency, µM (top dose mostly 76.9 µM), without a hit: at the highest dose activity change, negative = inhibition, most hits filed as inhibitors. gsp-mutant cells, cAMP HTRF, 30 min; control for the full effect not named in the record. AID 624288. 0.4% of 340,000 active; active = falling curve of any shape with a large fitted effect; inconclusive = falling curve, mostly with a smaller effect; inactive = flat or rising curve; cell line not stated here;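 also: intracellular cAMP measured with PDE inhibitor Ro 20-1724 present during compound exposure; potency is read from the fitted curve at half-maximal effect; % is scaled to controls: 0 for no effect and ±100 for the full control effect; nearly all actives have a fitted effect of over 65% in size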
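HTRF cAMP read-out (cAMP-d2 plus anti-cAMP antibody-K in lysis buffer, 30 min RT). Before lysis, cells are exposed to compounds with […] for 30 min at 37C in DPBS containing Ca/Mg, BSA and Tween 20.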
Menin-MLL FL inh: inhibitors of human menin-MLL interaction, wild-type MLL peptide; 290,000 tested, under 10 active; Fluorescence polarization, fluorescein-MLL peptide displacement from menin; FP activity change, % at 61.4 µM; AID 1766; inconclusive = falling polarisation curve, or a change in total fluorescence; inactive = total fluorescence flat and polarisation flat or rising; no compound was filed as active; the % refers to the polarisation; negative = inhibition;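 also: % of control where 0% means no effect; inhibitors lower the polarisation; unlabelled MLL peptide was the positive control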
Sfp inh: inhibitors of Bacillus subtilis Sfp phosphopantetheinyl transferase | Q9F4F7 | Biochemical Sfp PPTase activity, qHTS | Potency, µM, for the others: max response, negative = inhibition, usual class: inhibitors | 3.5% of 310,000 active; active = well fitted inhibition curve with a large enough effect; inconclusive = small, poorly fitted or top-dose-only effect, or another doubt; inactive = no such curve, though single readings can be large or run the other way;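 also: the enzyme is Sfp with the accession as filed and its product quenches rhodamine fluorescence; potency is read from the fitted curve at half-maximal effect; 0% = enzyme reaction without inhibitor and -100% = no enzyme wells; top concentration of the series not given in the record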
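Step 1, compound plus 15 nM Sfp-PPTase, 15 min, room temperature. Step 2, add rhodamine-CoA (5 uM) and BHQ-2-YbbR (12.5 uM). Step 3, read 525/598 nm fluorescence at 0 and 30 min.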
ClpP mod: qHTS Assay for Activators of ClpP; purified B. subtilis ClpP, FRET peptide cleavage, 20 min; Potency, µM (titrated, usually from 57.5 µM), without a hit: top-dose activity change, negative = active; 1.9% of 340,000 active; AID 651965, 2013; active = well fitted falling curve with a large enough effect; inconclusive = small, poorly fitted or top-dose-only effect; inactive = no such curve, though single readings can be large or run the other way; also: potency is read from the fitted curve at half-maximal effect; the source files actives as falling curves though it sought activators and does not explain the sign; nearly all actives have a fitted effect of over 65% in size; many hits overshoot -100%
Target sequence (P80244 whole entry, looked up): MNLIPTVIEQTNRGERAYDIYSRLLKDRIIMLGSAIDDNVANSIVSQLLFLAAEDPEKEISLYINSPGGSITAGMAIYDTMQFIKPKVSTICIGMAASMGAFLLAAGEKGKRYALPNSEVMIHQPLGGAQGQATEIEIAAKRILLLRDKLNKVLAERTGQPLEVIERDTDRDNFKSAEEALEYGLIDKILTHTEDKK
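FRET quenching reversal measured ClpP activation: 10 microg/mL B. subtilis ClpP at pH 8 with the FRET-FV decapeptide, read at 430 nm after 320 nm excitation. The 20-min minus 0-min signal was scaled between DMSO/no-enzyme wells and ADEP (5.8 microM final).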
D2 PAM: human D2 receptor positive allosteric modulation. 0.23% of 360,000 active. potentiation, % (test concentration not listed). DiscoveRx D2 beta-arrestin cells, luminescence, 90 min; 100% = 57 uM dopamine signal. AID 624464; active = potentiation of 50% or more; inconclusive = 30% to 50%; inactive = 30% or less;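 also: compound concentration not given in the record; tested on top of an EC20 dose of dopamine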
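D2 cells co-treated with compound plus 50 nM dopamine (EC20) for 90 min at 37 deg C to detect potentiation. Beta-arrestin recruitment was read as enzyme-fragment luminescence after 1 h at ambient temperature. Full response was set by 57 uM dopamine.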
Numbers without * were called inactive; ? = inconclusive; / = not tested or not shown; [ ] = dose if it differs, or a comment.

SMILES	gsp agonist	TRPV1 PAM	gsp antag	Menin-MLL FL inh	Sfp inh	ClpP mod	D2 PAM
O=C(Nc1cc(Cl)ccc1-n1cncn1)c1cc(S(=O)(=O)N2CCOCC2)ccc1F	3%	-8	-3%	/	12%	-0.1%	3
COc1cnc(-c2ccccn2)nc1Oc1ccccc1	-18%[15.4 µM]	-2	6%	-1.1	7%	/	-6
CCCOc1ccc(/C(O)=C2/C(=O)C(=O)N(CCCn3ccnc3)C2c2ccc(C)o2)cc1 (stereo unspecified)	7%[15.4 µM]	-7	10%	0.0	15%	0.1%	-11
CCN(CC)S(=O)(=O)c1ccc(OC)c(NC(=O)COc2ccc3c(C)cc(=O)oc3c2)c1	8.9µM*	-10	-49%	2.9	-10%	-30%	11
COc1ccc(S(=O)(=O)N2CCN(C(=O)CCCN3C(=O)NC4(CCCC4)C3=O)CC2)cc1	13%[15.4 µM]	7	-8%	/	/	-0.1%	-1
COc1ccc(NC(=O)C#Cc2ccccc2)cc1OC	9%	-1	-9%	13	-2%	/	-11
Clc1ccc(C2NCCc3sccc32)cc1 (stereo unspecified)	-7%[15.4 µM]	-2	7%	-1.4	-10%	/	-14
CCOC(=O)c1nnc(-c2cccs2)nc1Oc1ccc(Cl)cc1	25%	-1	9%	-1.6	17%	0.6%	-13
O=C(CSc1ccc(Cl)cc1)OCc1nnc(-c2ccccc2)o1	15%	-6	-23%	0.7	-1%	0.5%	-4
CC(C)C(NC(=O)c1ccc(F)cc1)C(=O)Nc1cccnc1 (stereo unspecified)	-5%[15.4 µM]	-1	15%	-4.4	8%	/	0
O=C(NC(Cc1ccccc1)C(=O)O)/C(=C/c1cccc([N+](=O)[O-])c1)NC(=O)c1ccco1 (stereo unspecified)	-41%[inhibitor]	-1	11%	1.0	16%	/	-1
COc1cc(/C=N/Nc2ccc(Cl)c(C(=O)O)c2)ccc1OC(=O)c1ccccc1F	-24%	-4	-8%	3.7	-22%	-2.3%	-7
CC(C)C(NC(=O)/C(=C\c1ccco1)NC(=O)c1ccco1)C(=O)O (stereo unspecified)	-1%	1	4%	?	-5%	-2.2%	-3
O=C(NCCc1nc2ccccc2[nH]1)c1cccc(Br)c1	7%[15.4 µM]	-12	3%	3.2	14%	/	-15
Cc1ccc(S(=O)(=O)N(C)C)cc1NC(=O)c1cc(-c2ccco2)nc2ccccc12	-9%	-10	-11%	/	-6%	28µM*	0
CCCCN(C)C(=O)c1nc2ccccn2c1CN1CCSCC1	-1%	0	4%	-2.6	11%	2.0%	-13
Cc1ccc(-c2nc3ncccc3o2)cc1NC(=O)c1cccnc1	?	-6	-7%	0.1	16%	-8.9%	-4
Cc1cc2[nH]c(=O)c(=O)[nH]c2cc1S(=O)(=O)N1CCC(C)CC1	-6%	-17	10%	-3.2	13%	4.2%	1
CCN1CCN(C(=O)C2c3cc(OC)c(OC)cc3C(=O)N(C)C2c2ccc(SC)cc2)CC1 (stereo unspecified)	16%	11	-8%	-0.2	5%	0.7%	-6
Cc1ccccc1NC(=O)C1CCN(C2=NS(=O)(=O)c3ccccc32)CC1	4%[15.4 µM]	-1	0%	6.1	25%	15%	-11
N#CCCN(C(=O)CSc1ccc2c(c1)OCCO2)c1ccccc1	-5%	2	?	1.6	-11%	-3.9%	10
CCOC(=O)N1CCN(C(=O)c2oc(=O)c3ccccc3c2-c2ccc(C)cc2)CC1	-6%	/	-13%	2.3	14%	-2.2%	-2
O=C(OCC(=O)N1CCN(S(=O)(=O)c2ccc(Cl)cc2)CC1)c1ccc([N+](=O)[O-])o1	0%[15.4 µM]	-3	12%	-0.6	5%	/	?
O=C(Cc1ccc([N+](=O)[O-])cc1)NCC1CCCO1 (stereo unspecified)	44%	-4	3%	1.2	1%	-2.2%	0
CCCC(=O)Nc1nnc(-c2ccco2)s1	3%	-3	2%	3.1	32µM*	-17%	-5
SMILES	gsp agonist	TRPV1 PAM	gsp antag	Menin-MLL FL inh	Sfp inh	ClpP mod	D2 PAM
CCC1Sc2ccccc2N(CC(=O)NCc2ccc3c(c2)OCO3)C1=O (stereo unspecified)	-43%[inhibitor]	-7	-10%	1.1	5%	-0.8%	-15
Cc1ccc2c(C)c(C(=O)N3CCN(c4ncccn4)CC3)oc2c1C	9%	-15	2%	-1.8	-21%	-11%	5
O=C(CCn1nnc2ccccc21)NNC(=O)C1CCCCC1	12%[15.4 µM]	-1	-1%	0.2	23%	/	-7
Cc1ccc[n+](CC(=O)N2CCCCC2)c1C	-25%[15.4 µM]	15	14%	3.4	8%	/	-2
CCN(CC(=O)NC1CCS(=O)(=O)C1)C(=O)c1ccc(S(=O)(=O)N(CC)CC)cc1 (stereo unspecified)	3%	-8	-3%	/	/	1.3%	-6
Cc1cc(Sc2nc(NC(C)C)nc(NC(C)C)n2)nc(Cl)n1	0%[15.4 µM]	1	-2%	1.7	-11%	/	1
COC(=O)[C@@H](Cc1ccc(O)cc1)NC(=O)[C@H]1CCC(=O)N1C(=O)OCc1ccccc1	/	7	4%	6.0	1%	0.5%	4
CSc1nc(NS(=O)(=O)c2cc(C)c(Cl)cc2Cl)nn1C	?	5	11%	/	8%	0.3%	-7
O=C(Nc1ccc(S(=O)(=O)NCc2ccco2)cc1)c1ccncc1	-4%	2	15%	-0.6	2%	-0.5%	7
NC1=NN=C(N2N=C(c3ccccc3)CC2(O)C(F)(F)F)n2ncnc2C1 (stereo unspecified)	-42%[inhibitor]	0	5%	0.4	17%	3.5%	-2
O=[N+]([O-])c1ccc(C2CCCC/C2=N/OCc2ccc(F)cc2)c([N+](=O)[O-])c1 (stereo unspecified)	-1%	3	-17%	1.0	?	-1.2%	17
O=C(NC1CC(=O)N(c2ccc(F)cc2)C1)C(=O)c1c[nH]c2ccccc12 (stereo unspecified)	1%[15.4 µM]	4	6%	/	/	-1.5%	6
CCN1CCN(c2c(Cl)cccc2NC(=O)c2ccc3c(c2)OCCO3)CC1	16%	-23	10%	-0.5	9%	-2.2%	-25
CC1CCN(c2cc(N)c(Cl)cc2[N+](=O)[O-])CC1	-3%	-6	-15%	-2.1	1%	-0.5%	3
COCCN(C(=O)CCC(=O)Nc1ccccn1)C(C(=O)NCCC(C)C)c1ccc(C)cc1 (stereo unspecified)	6%[15.4 µM]	-10	6%	/	-7%	/	1
Cc1cc(-c2cccs2)n[nH]1	20%	2	3%	-2.0	0%	-0.6%	-7
COCCCNC(=S)N/N=C/c1ccccc1O	19%	1	-3%	0.3	10%	?	-25
COc1ccc(/C(C)=N\NS(C)(=O)=O)c(OC)c1	6%	-13	-7%	0.1	-3%	0.8%	-9
COc1cc(NC(=O)Cn2ncc(Cl)c(Cl)c2=O)c(C)cc1[N+](=O)[O-]	10%[15.4 µM]	2	-28%	-0.3	-2%	-4.6%	-22
CCC(C)NC(=O)C1CCN(S(=O)(=O)c2ccc(OC)cc2)CC1 (stereo unspecified)	9%	11	-2%	2.1	10%	0.1%	-4
CC(=O)c1ccc2noc(-c3ccc(C)cc3)c2c1	-35%[inhibitor]	12	10%	13	-16%	-9.8%	4
O=C(COC(=O)/C=C/c1cccc(F)c1)Nc1ccc(Cl)cn1	1%[15.4 µM]	3	1%	-1.6	1%	0.2%	-13
O=C(c1ccc2c(c1)OCO2)c1ccc[nH]1	3%	/	/	/	/	1.3%	-3
Cc1cc(/C=N/n2cnnc2)c(C)n1-c1ccc(Cl)cc1	?	-2	-1%	10	-9%	-2.0%	-12
CC1CC(C)CN(C(=O)C2CCCN(S(=O)(=O)c3cccc4nonc34)C2)C1 (stereo unspecified)	-50%[inhibitor]	-1	-11%	7.5	4%	-2.6%	-12
SMILES	gsp agonist	TRPV1 PAM	gsp antag	Menin-MLL FL inh	Sfp inh	ClpP mod	D2 PAM
Cc1cc(C(=O)N2CCCC(C(=O)c3ccc(Oc4ccccc4)cc3)C2)n[nH]1 (stereo unspecified)	-10%	?	35µM*	-1.7	-7%	1.8%	8
CN(c1ccccc1C(=O)Nc1ccccc1C(=O)NCc1ccco1)S(C)(=O)=O	-15%	4	-4%	1.2	-4%	-6.2%	4
COc1ccc(C(=O)Nc2ccc3c(c2)nc(CN2CCN(C(C)=O)CC2)n3C)cc1	-10%	19	3%	-1.1	26%	0.8%	-5
Cc1ccc(S(=O)(=O)CCC(=O)Nc2nc(-c3ccncc3)cs2)cc1	2%	-1	3%	3.7	-3%	2.1%	-5
O=C(COC(=O)c1cccs1)Nc1cc(S(=O)(=O)N2CCOCC2)ccc1Cl	-18%[15.4 µM]	0	?	1.8	15%	/	-4
Cc1noc(C)c1S(=O)(=O)N(CC(=O)Nc1ccc2c(c1)OCO2)c1ccc(C(C)C)cc1	-28%	4	-21%	0.5	14%	-0.1%	-6
Cc1cccc(NC(=O)c2cc([N+](=O)[O-])ccc2NC2CCCCC2)c1	-33%[inhibitor]	5	2%	0.4	14%	-2.6%	2
COc1ccc(N(C(C)C(=O)N/N=C/c2ccc(OCC(C)C)cc2)S(C)(=O)=O)cc1 (stereo unspecified)	11%	?	?	0.2	10%	-1.0%	1
CCCCN(CCCC)Cc1ccc(C(=O)NNC(=O)Nc2ccccc2)o1	-9%	-3	5%	-0.5	21%	-2.1%	-12
O=C(CSc1ncc(C(F)(F)F)cc1Cl)N1CCN(S(=O)(=O)c2ccccc2)CC1	-41%	-32	-25%	0.0	-1%	-1.0%	-20
Cc1csc(NC(=O)c2ccc(C)c(S(=O)(=O)N3CCOCC3)c2)n1	/	-21	/	-0.5	1%	/	/
O=C(OCc1ccc(COC(=O)c2cccnc2Cl)cc1)c1cccnc1Cl	5%[15.4 µM]	6	-33%	-2.7	11%	/	-2
O=C(OCc1cn([C@@H]2CN(Cc3cccs3)[C@@H](c3ccc(Cl)cc3)C[C@H]2O)nn1)c1ccccc1	-30%[inhibitor]	/	/	/	/	-2.4%	2
Cc1onc(-c2c(F)cccc2Cl)c1C(=O)NC1CCCCCC1	-20%	-18	-23%	2.3	16%	/	-5
CCCc1nnc(NC(=O)CCC(=O)N2CCN(c3nc(C)cc(C)n3)CC2)s1	?	-1	6%	1.5	6%	/	-2

Rows are unselected; 5.1% or so of the library scored in one or more.
